# Rango release inh – inhibitors of RanGTP-induced Rango-importin beta complex dissociation; Biochemical FRET Rango-importin beta, RanGTP-induced dissociation; O95149+P62826; 340,000 tested, 0.071% active; Potency, µM (series often up to 46.1 µM), without a hit: top-dose activity change, negative = inhibition; active means falling FRET ratio curve, often poorly fitted, with flat reads before Ran was added; inconclusive means other falling curves, or compound fluorescence or quenching; inactive means flat or rising ratio curve;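 also: potency is read from the fitted curve at half-maximal effect; % of control where 0% means no effect; nearly all actives have a fitted effect of over 45% in size; -100% = wells without RanGTP and RCC1; the record marks most hits as doubtful in a second field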
#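 Two FRET readings bracket the reaction: one 5 min after compound meets Rango–importin beta, another 45 min after RanGTP-RCC1 (0.6 uM Ran, 0.2 uM RCC1, 2 mM GTP) is added. Only the second defines inhibition.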
# miR-21 FLuc – raises the signal of a miR-21 reporter | 340,000 tested, under 10 active | HeLa miR-21 FLuc reporter, luciferase, 48 h | Potency, µM (highest dose often 38.3 µM), for the others: at the top dose reporter change, positive = more light; active = well fitted rising curve with a large enough effect; inconclusive = small, poorly fitted or top-dose-only effect; inactive = no such curve, though single readings can be large or run the other way;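 also: % of control where 0% means no effect; miR-21 action dims this reporter so a rising signal means less miR-21 action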
#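 HeLa miR-21-FLuc reporter line, endogenous miR-21; 2000 cells/well in DMEM/10% FBS; compound titration up to ~40uM final, 48 h, 37 degree Celsius; luciferase detection reagent, 15 min lysis, CCD luminescence.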
# Rango complex inh – prevents formation of the Rango-importin beta complex. Q14974. Rango CFP/YFP FRET sensor + importin beta, 45 min. Potency, µM (series often up to 92.2 µM), without a hit: at the top dose inhibition of complex formation. 340,000 tested, 0.031% active. AID 540263; active = rising FRET ratio curve, often small or poorly fitted; inconclusive = mostly compound fluorescence or quenching in the first reads; inactive = flat curves in all reads;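 also: potency is read from the fitted curve at half-maximal effect; 0% = DMSO wells and 100% = buffer wells lacking importin beta; nearly all actives have a fitted effect of over 15% in size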
# Target sequence (Q14974 whole entry, looked up): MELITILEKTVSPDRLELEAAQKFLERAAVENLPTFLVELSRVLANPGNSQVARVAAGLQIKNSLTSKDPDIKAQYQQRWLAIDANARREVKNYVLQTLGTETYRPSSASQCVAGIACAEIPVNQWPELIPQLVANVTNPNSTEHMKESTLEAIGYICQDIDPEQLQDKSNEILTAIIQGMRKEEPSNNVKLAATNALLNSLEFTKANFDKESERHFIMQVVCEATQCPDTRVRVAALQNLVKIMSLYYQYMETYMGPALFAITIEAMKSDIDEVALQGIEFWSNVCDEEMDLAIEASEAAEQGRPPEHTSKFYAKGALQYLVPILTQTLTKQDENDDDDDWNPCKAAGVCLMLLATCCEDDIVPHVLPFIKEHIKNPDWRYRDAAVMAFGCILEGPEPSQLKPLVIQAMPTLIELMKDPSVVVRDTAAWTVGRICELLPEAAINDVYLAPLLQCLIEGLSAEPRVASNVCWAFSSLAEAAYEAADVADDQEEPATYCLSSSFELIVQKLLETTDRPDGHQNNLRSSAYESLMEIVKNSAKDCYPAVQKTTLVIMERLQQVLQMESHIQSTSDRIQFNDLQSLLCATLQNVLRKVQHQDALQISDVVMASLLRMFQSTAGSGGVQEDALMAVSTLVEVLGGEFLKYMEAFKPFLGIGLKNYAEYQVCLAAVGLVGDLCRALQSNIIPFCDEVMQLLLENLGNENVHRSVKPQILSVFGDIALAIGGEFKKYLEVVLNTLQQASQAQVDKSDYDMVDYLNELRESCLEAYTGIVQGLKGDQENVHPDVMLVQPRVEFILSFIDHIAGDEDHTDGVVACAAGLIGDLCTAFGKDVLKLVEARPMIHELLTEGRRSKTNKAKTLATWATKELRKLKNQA
#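 Inhibition scored from the CFP 486 nm/YFP 530 nm FRET ratio 45 min after adding 0.125 microM importin beta to 50 nM Rango biosensor preincubated 5 min with compound (room temperature, PBS with DTT, Tween-20, BSA). No-importin wells as positive control.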
# GLA inh pH 4.5 – blocks human alpha-galactosidase A at pH 4.5; activity change, negative = inhibition, % at 105 µM; purified enzyme, 4-MU-alpha-Gal fluorescence, pH 4.5; 230,000 tested, under 10 active; inconclusive = small, poorly fitted or top-dose-only inhibition, or a rising curve; inactive = flat fitted curve, though single readings scatter; no compound was filed as active;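 also: 0% = full activity with enzyme and -100% = basal without enzyme; dose as in the result columns while the protocol names 77 µM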
# Active calls of the source: *; u = inconclusive; x = no result given. Some of the compounds tested. The share of hits here may be higher or lower than overall.
Rango release inh	miR-21 FLuc	Rango complex inh	GLA inh pH 4.5	molecule
-9.8%	x	3.5%	x	Cc1ccc(-c2nn(-c3ccccc3)cc2C(=O)NCCCN2CCCC2=O)cc1
-9.6%	x	-3.2%	x	O=C1C(Br)=C(c2ccccc2)C(c2ccccc2)=C1c1ccccc1
-5.8%	-5.9%	-1.4%	18.4	COc1ccc(/C=C/c2nnc(NC(=O)COc3ccccc3)s2)cc1
u	10.2%	2.7%	-13.7	COc1ccc(CCn2c(=N)c(C(=O)NCc3ccco3)cc3c(=O)n4ccccc4nc32)cc1
-2.2%	2.1%	u	1.8	COc1ccc(N(CN2C(=O)c3ccccc3C2=O)C(=O)COc2ccc(Cl)cc2Cl)cc1
4.0%	17.8%	1.8%	-12.9	Cc1ccc(/C=N/NC(=O)Cn2cnc3ccccc32)cc1
7.3%	x	3.9%	x	CSCCC(NS(=O)(=O)c1ccccc1F)C(=O)Nc1ccncc1 (stereo unspecified)
-0.4%	x	-3.1%	x	C=CC[C@H](CC(=O)NCCO)C(=O)N[C@H](COC(=O)[C@@H](CC=C)CC(=O)OC(C)(C)C)Cc1c[nH]c2ccccc12
-5.2%	5.7%	-1.3%	-2.0	Cc1cccc(C(=O)N2CCc3ccccc3C2)c1[N+](=O)[O-]
-7.5%	-2.8%	-0.2%	-6.3	Cc1ccc(CCN2CC(C(=O)NCCCN(C)Cc3ccccc3)CC2=O)cc1 (stereo unspecified)
-18.1%	-2.2%	u	-7.9	CC1(C)CC(=O)C2=C(C1)NC(=O)CC2c1ccccc1F (stereo unspecified)
10.0%	-11.4%	-0.8%	3.9	O=C1OC(c2cccc([N+](=O)[O-])c2)C2(CCCC2)C(=O)C12CCCCC2 (stereo unspecified)
6.3%	-13.5%	1.7%	1.0	Cn1c(CN2CCCC2)nc2cc(NC(=O)COc3ccccc3)ccc21
-11.8%	-11.0%	-1.0%	0.9	CCCCc1ccc(NC(=S)NCC2CCCO2)cc1 (stereo unspecified)
2.4%	x	-0.4%	x	CC(=O)NC1CCC(=O)C=C1c1ccccc1 (stereo unspecified)
3.2%	-2.9%	-1.4%	x	O=C(O)c1ccccc1-c1ccccc1C(=O)NCCc1ccccc1
-23.9%	-33.7%	-0.4%	-10.3	Cn1c(SCC(=O)c2ccccc2)nnc1-c1cnccn1
u	-7.1%	2.6%	-1.2	Cc1nnc2ccc(N3CCN(c4cccc(C(F)(F)F)c4)CC3)nn12
-8.2%	x	u	x	N#CCC(=O)Nc1ccc(C(=O)OCC(=O)c2c[nH]c3ccccc23)cc1
-3.1%	-6.9%	0.7%	0.5	CN1C(=O)C(CC(=O)Nc2ccccc2)S/C1=N/c1nccs1 (stereo unspecified)
1.7%	-12.2%	-0.8%	-3.3	CN(C(=O)COc1ccc(C(C)(C)C)cc1)C1CCS(=O)(=O)C1 (stereo unspecified)
14.5%	20.2%	0.0%	1.9	COc1ccc(C[C@@H]2CN3C(=NC[C@@H]3Cc3ccc(O)cc3)N2C[C@H](C)NC(=O)CCC2CCCCC2)cc1
-11.2%	-4.3%	3.0%	-2.3	CC(C)C(=O)Nc1ncc(Cc2ccc(Cl)cc2)s1
-10.7%	-7.5%	u	-1.3	CNC(=O)c1ccc(NC(=O)c2cccc(C(F)(F)F)c2)cc1
-12.9%	x	-1.0%	x	Cc1cc(C(=O)NCCN2CCOCC2)c2ccccc2n1
-19.3%	-2.3%	-3.0%	-4.5	Cc1cc(C)cc(N(CC(=O)NCC2CCCO2)S(=O)(=O)c2c(C)noc2C)c1 (stereo unspecified)
2.8%	4.5%	0.2%	x	O=C(O)C1CCN(C(=O)CSc2nc3cc(Cl)ccc3c(=O)n2Cc2ccccc2)CC1
-9.3%	0.0%	0.8%	x	CCn1nc(C)cc1C(=O)N1CCCC(C(=O)c2ccc(OC)cc2C)C1 (stereo unspecified)
-8.1%	10.1%	4.8%	x	O=C(CSc1cn(CCNC(=O)c2ccccc2)c2ccccc12)NCC1CCCO1 (stereo unspecified)
-8.8%	-0.9%	-1.4%	5.4	C=CCn1c(Cc2ccc(OC)cc2)nnc1SCC(=O)NCCc1ccccc1
3.5%	-1.8%	1.6%	4.9	CC1(C)CC(=O)CC(C)(C)N1OC(=O)c1ccco1
u	-6.7%	u	-4.9	CN1CCN(S(=O)(=O)c2cc([N+](=O)[O-])ccc2N/N=C/c2ccc(Cl)cc2)CC1
16.7%	-1.4%	0.3%	6.8	CN(Cc1ccc2nonc2c1)Cc1nc(Cc2cccc(F)c2)no1
-8.2%	-3.5%	0.0%	-3.2	CC(=O)Nc1sc2c(c1C(c1ccc(Cl)cc1)N1CCOCC1)CCCC2 (stereo unspecified)
17.3%	x	-2.5%	x	Cc1cc(SCC(=O)OCC(=O)N(C)c2ccccc2)nc2ccccc12
-8.1%	0.9%	-1.5%	x	CC1CC(C)CN(S(=O)(=O)c2ccc3c(c2)NC(=O)C(C)C(=O)N3)C1 (stereo unspecified)
u	x	u	x	CC(=O)Oc1ccc2cc(-c3cccnc3)c(=O)oc2c1
-4.8%	x	-0.3%	x	CC1(c2cccc(Br)c2)NC(=O)N(CC(=O)Nc2ccc3c(c2)OCO3)C1=O (stereo unspecified)
-1.0%	-0.3%	4.7%	1.5	COCCN1Cc2cccc(C(=O)NC(C)CCc3ccco3)c2C1=O (stereo unspecified)
-9.5%	-3.8%	-1.0%	1.3	CCN1C(=O)/C(=c2\o/c(=C3\C=Cc4ccccc4N3CC)c(=O)n2CC)SC1=S
-9.1%	4.1%	-1.4%	x	COc1ccc(N(CC(=O)NC(C)(C)C)C(=O)CCC(=O)Nc2nccs2)cc1
-0.8%	-17.8%	0.7%	3.6	Nc1nnnn1/N=C/c1ccccc1OCc1ccccc1
-1.1%	0.5%	0.7%	-14.4	N#CCCN(CCC#N)C(=S)NC1CC2C=CC1C2 (stereo unspecified)
-12.3%	-51.8%	5.0%	-9.4	N#CCCN1CCN(C(=S)c2ccc(-c3ccc(Cl)cc3)o2)CC1
-17.1%	x	0.4%	x	C[C@H](CO)N1C[C@H](C)[C@@H](CN(C)C(=O)Nc2ccccc2)Oc2ccc(NS(=O)(=O)c3cn(C)cn3)cc2C1=O
21.5%	-14.9%	-5.4%	-22.3	CN(C)S(=O)(=O)c1ccc(Cl)c(NC(=O)CN2CCCCCC2)c1
-16.6%	x	2.1%	x	CCc1ccc([C@H]2C(C(=O)O)=C[C@@H](CC)N2S(=O)(=O)c2ccc(C)cc2)cc1
0.0%	-33.2%	0.2%	-4.0	COc1ccccc1C(=O)Nc1ccc2c(c1)nc(CN1CCN(C(C)=O)CC1)n2C
13.1%	-2.4%	-3.5%	-3.2	COc1ccc(C(CC(=O)N2CCOCC2)c2c(OC)cc(OC)c3ccc(=O)oc23)cc1 (stereo unspecified)
8.1%	x	-0.9%	x	O=C(COc1coc(CN2CCN(c3ccccc3)CC2)cc1=O)Nc1ccc(F)cc1
7.0%	-0.1%	3.9%	u	O=C(NCCc1ccc(Cl)cc1)C1CCC(=O)N1Cc1ccccc1Cl (stereo unspecified)
u	-66.7%	u	2.9	O=C(/C=C/Nc1ccc(F)cc1)c1ccc(Br)cc1
-0.7%	0.5%	7.0%	-5.5	CNC(=S)NCc1ccc2[nH]c(C)cc2c1
1.7%	1.0%	0.1%	x	COC(=O)c1ccc(NC(=O)CN2C(=O)CC(C)S(=O)(=O)c3ccccc32)cc1 (stereo unspecified)
1.0%	-7.8%	0.6%	3.3	CN(C(=O)c1c[nH]c(=O)cc1C(F)(F)F)c1ccc(Cl)c(Cl)c1
-2.2%	20.3%	1.5%	x	Cc1ccc(C)c(-c2cc(C(=O)Nc3cccnc3)c3ccccc3n2)c1

# Carrying on:
Rango release inh	miR-21 FLuc	Rango complex inh	GLA inh pH 4.5	molecule
-6.7%	1.3%	5.6%	x	CCOC(=O)COc1ccc2c3c(c(=O)oc2c1)CCCC3
0.7%	1.6%	0.3%	x	COc1cc(OC)c(NC(=O)Cc2ccc(OC)c(S(=O)(=O)N3CCOCC3)c2)cc1Cl
-16.2%	-5.0%	1.7%	2.4	CCCN(CCC)C(=O)C1CCN(c2cc(C)nc3c(-c4ccc(OC)c(OC)c4)c(C)nn23)CC1
23.5%	5.0%	2.3%	-5.6	Cc1ccc(C(=O)N/C(=C\c2ccc(Cl)cc2)C(=O)NCCCN2CCOCC2)cc1
8.0%	-3.0%	2.7%	1.6	C=CCOc1ccc(CNc2nn[nH]n2)cc1OC
19.7%	0.9%	3.1%	x	COc1cccc(-c2c(C(=O)N/N=C/c3ccsc3)nnn2-c2nonc2N)c1
-13.8%	0.1%	0.0%	x	Cc1ccc(-c2ccc(=O)n(CC(=O)NCCC(C)C)n2)cc1
19.6%	-7.2%	-0.8%	1.6	CCOC(=O)C1=NN(c2ccc(Cl)cc2)C(c2ccccc2)CC1=O (stereo unspecified)
-12.7%	-10.5%	-1.3%	3.3	CCOC(=O)c1c(NC(=O)CC)sc(C(C)=O)c1C
0.1%	-1.9%	0.1%	1.5	Cc1ccc(C)n1NC(=O)c1ccc(Cl)cc1
-7.7%	-1.8%	-1.0%	x	CCOC(=O)c1ccc(N2C(=O)C(O)=C(C(C)=O)C2c2ccc([N+](=O)[O-])cc2)cc1 (stereo unspecified)
60.4%	-3.3%	-0.6%	7.9	Cc1cccc(C)c1OCC(=O)N(Cc1ccc(N(C)C)cc1)C1CCS(=O)(=O)C1 (stereo unspecified)
7.4%	x	0.1%	x	CCN(CC(=O)Nc1c(F)cccc1F)C(=O)c1ccc2c(c1)OCCO2
-4.3%	1.6%	1.2%	-1.0	CSc1cc(C)[nH]c(=O)n1
2.5%	-1.8%	-1.3%	-26.3	COc1ccc(/C=C2\SC(=S)N(CC(=O)OCC(=O)Nc3cc(Cl)cc(Cl)c3)C2=O)cc1
-8.7%	-3.9%	-1.2%	-8.7	O=C(O)C1CC(=O)N(c2ccc(OCc3ccc(Cl)cc3Cl)cc2)C1 (stereo unspecified)

# Part of the list above, showing only miR-21 FLuc:
smiles,miR-21 FLuc
Cc1ccc(C)n1NC(=O)c1ccc(Cl)cc1,-1.9%
COc1ccc(/C=C2\SC(=S)N(CC(=O)OCC(=O)Nc3cc(Cl)cc(Cl)c3)C2=O)cc1,-1.8%
CCOC(=O)c1ccc(N2C(=O)C(O)=C(C(C)=O)C2c2ccc([N+](=O)[O-])cc2)cc1 (stereo unspecified),-1.8%
CCOC(=O)c1c(NC(=O)CC)sc(C(C)=O)c1C,-10.5%

# Remaining list, next part:
Rango release inh	miR-21 FLuc	Rango complex inh	GLA inh pH 4.5	molecule
-3.4%	-20.2%	0.3%	-6.7	CCCCNC(=O)c1onc(CSc2ccc(C(C)C)cc2)c1C(=O)O
12.0%	x	0.7%	x	COc1cc(C)ccc1OCC(=O)OCC(=O)c1[nH]c(C)c(C(C)=O)c1C
-5.5%	0.3%	-3.4%	4.6	CC(C)OC(=O)C(C)Nc1ccc(F)c(Cl)c1 (stereo unspecified)
15.2%	-25.4%	0.9%	u	Cc1nc(SCc2nc3ccccc3[nH]2)c2oc3ccccc3c2n1
-9.1%	-6.9%	-0.8%	4.3	CC(C)n1cc([C@@H]2C[C@H]3CN(Cc4cccc(Cl)c4)C(=O)[C@]34CCCN24)cn1
-22.6%	-6.4%	-1.0%	-2.7	CCc1cc2c(C)ccc(C)c2nc1SCC(=O)Nc1c(C)[nH]c(=O)[nH]c1=O
-5.8%	-2.8%	0.4%	-2.8	NS(=O)(=O)c1cc2c(cc1Cl)NC(C1C[C@H]3C=C[C@@H]1C3)NS2(=O)=O (stereo partly specified)
0.2%	-3.5%	4.6%	-4.8	COc1nc(C)nc2c1ccc1ccccc12
0.6%	x	-1.2%	x	O=C(Nc1cc(-c2ccccc2)nn1-c1ccccc1)c1ccccc1F
16.7%	-4.1%	5.4%	u	O=C(N/N=C/c1ccc(-c2cccc([N+](=O)[O-])c2)o1)c1ccccc1O
3.1%	x	-0.2%	x	CCOc1ccc(OCCC(=O)N(CC)CC(=O)Nc2ccccc2C(F)(F)F)cc1
7.4%	-9.2%	1.2%	4.5	Cn1cnnc1SCc1ccc(C(=O)NN)cc1
-16.2%	-0.3%	-5.3%	-1.0	O=C(COc1cccc(NC(=O)c2ccco2)c1)c1ccc(F)cc1
-11.9%	-12.9%	0.0%	-10.4	COCCCNc1oc(-c2ccccc2OC)nc1C#N

# High-throughput results: PubChem, National Center for Advancing Translational Sciences (NCATS)
